Vif A3G = HIV-1 Vif–A3G interaction blockers – biochemical, TR-FRET, GST-Vif 1-94, biotin-A3G peptide, dose response retest, primary screen (AID 1117319); TR-FRET GST-Vif / biotin-A3G peptide binding; higher % means a stronger effect; test concentration not given here; strong numbers were not always called active; 260,000 compounds, 0.57% hits; inhibition, %; hits with a dose series show IC50 in µM;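 active = above the screen mean plus three standard deviations and confirmed in dose response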;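 also: Vif residues 1-94 fused to GST binding biotinylated APOBEC3G peptide 110-148; 0% = full assay without inhibitor and 100% = GST in place of GST-Vif; retest series ran down from 100 µM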
LANA-H2A inh = blocks KSHV LANA binding to histone H2A/H2B; inhibition, % (no concentration beside the values); cell-free LANA-H2A/H2B peptide, fluorescence polarization; Q9QR71; 320,000 compounds, 0.6% hits; in the data active = inhibition mostly above about 10%, no sharp cut-off; inactive = mostly below about 6.7%;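 also: stock transfer was 7.5 nL into about 10 µL; 0% = median of vehicle wells and 100% = median of positive control wells; one replicate is shown; the record names a cut of 25% in any replicate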
T cruzi inh = T. cruzi replication inhibition; AID 1885; 300,000 compounds, 1.4% hits; inhibition, % (concentration not given with the values); T. cruzi beta-gal in NIH3T3, luminescence, 90 h;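 active = mean inhibition across valid replicates above about 55%, limit read from the data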;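 also: signal also drops with host cell toxicity which is not excluded here; 0% = plate median of DMSO wells and 100% = zero luminescence signal; higher percent means less beta-gal luminescence so fewer parasites; stock transfer was 50 nL into about 50 µL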
AF4-AF9 inh = MLL-AF4/AF9 protein interaction inhibition | P42568 | inhibition, % at 10 µM | AID 651704 | 350,000 compounds, 0.47% hits | AlphaScreen, biotin-AF4 peptide binding to FLAG-AF9;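 active = every replicate reaching a set inhibition limit, whatever the replicate mean, cut at about 25% in these data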;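 also: 0% = plate neutral control median and 100% = total signal loss; the record names both 10 and 1 µM as test concentration; the first replicate is given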
Numbers without * were called inactive; . = no result given. Some of the compounds tested. The share of hits here may be higher or lower than overall.

1	O=C(NC1CCCCC1)c1csnn1
2	CC1C(=O)N(Cc2cn(CCC3OCCCO3)nn2)CCS(=O)(=O)N1Cc1ccc(-c2ccc(Cl)nc2)cc1 (centres undefined)
3	C[C@@H]1CN([C@H](C)CO)C(=O)c2c(c3ccccc3n2C)-c2ccccc2CO[C@H]1CN(C)Cc1ccc(-c2ccccc2)cc1
4	COc1ccc2[nH]c3c(c2c1)CCN1C(=O)C(CC(=O)NCCc2ccccn2)C[C@H](C(=O)N2CCOCC2)[C@@]31CCC1CCCC1 (some centres undefined)
5	CC1=CC(c2ccccc2)=NS(=O)(=O)N1
6	COc1cc2c(cc1OC)CN(C(=O)CN1C(=O)NC3(CCCCC3C)C1=O)CC2 (centres undefined)
7	Nc1ccccc1-c1ccc([N+](=O)[O-])cc1
8	CCc1c(C)[nH]c2ccc(OC)cc2c1=S
9	Cc1ccc(C)c(C(=O)OCC(=O)NC(=O)NCc2ccccc2)c1
10	CC12CCC(C(NC(=S)NN)C1=O)C2(C)C (centres undefined)
assay / entry	1	2	3	4	5	6	7	8	9	10
Vif A3G	-6%	5%	3%	6%	0%	-10%	2%	-6%	1%	-4%
LANA-H2A inh	.	.	.	.	.	.	.	.	.	.
T cruzi inh	.	.	.	.	.	.	.	.	.	.
AF4-AF9 inh	-1.5	1.8	2.6	4.6	-4.8	-1.1	-1.1	0.1	-5.7	-5.6

Part of the list above in a different format:
(2) CC1C(=O)N(Cc2cn(CCC3OCCCO3)nn2)CCS(=O)(=O)N1Cc1ccc(-c2ccc(Cl)nc2)cc1 (centres undefined)
  Vif A3G: 5%
  LANA-H2A inh: .
  T cruzi inh: .
  AF4-AF9 inh: 1.8
(3) C[C@@H]1CN([C@H](C)CO)C(=O)c2c(c3ccccc3n2C)-c2ccccc2CO[C@H]1CN(C)Cc1ccc(-c2ccccc2)cc1
  Vif A3G: 3%
  LANA-H2A inh: .
  T cruzi inh: .
  AF4-AF9 inh: 2.6
(4) COc1ccc2[nH]c3c(c2c1)CCN1C(=O)C(CC(=O)NCCc2ccccn2)C[C@H](C(=O)N2CCOCC2)[C@@]31CCC1CCCC1 (some centres undefined)
  Vif A3G: 6%
  LANA-H2A inh: .
  T cruzi inh: .
  AF4-AF9 inh: 4.6

(cont.)
11	CC[C@]12c3[nH]c4ccc(OC)cc4c3CCN1C(=O)C(CC(=O)NCCc1ccccn1)C[C@@H]2C(=O)N1CCN(C(=O)c2ccco2)CC1 (some centres undefined)
12	Nc1nc(-c2ccccc2)c(CCCNc2ccccc2)c(=O)[nH]1
13	CCOc1ccc(OCCNC(=O)c2cc(C3CC3)nc3c2cnn3C(C)C)cc1
14	CC1CN(C(=S)Nc2ccccc2)C(C)CN1C=O (centres undefined)
15	N#Cc1cc2ccncc2c2ccccc12
16	Cc1ccc(S(=O)(=O)N(C)c2ccc(OC(C)C(=O)N(C)c3ccccc3)cc2)cc1 (centres undefined)
17	O=C(NNc1ccccc1)c1ccccc1
18	Cc1cc(OC(=O)c2ccccc2)c([N+](=O)[O-])c(=O)[nH]1
19	O=C(O)CCCCCN1C(=O)C(=O)/C(=C(/O)c2ccccc2)C1c1ccccc1 (centres undefined)
20	COc1ccc(Cc2nc(-c3ccc(Br)cc3)no2)cc1
21	COc1ccc(O)c(N)c1
assay / entry	11	12	13	14	15	16	17	18	19	20	21
Vif A3G	-4%	-5%	-2%	-10%	-8%	0%	9%	-1%	6%	-4%	0.93µM*
LANA-H2A inh	.	.	.	.	.	.	.	.	-21	0.1	-3.1
T cruzi inh	.	.	.	.	.	.	.	-15	.	.	.
AF4-AF9 inh	0.3	8.2	-0.7	-4.9	-1.5	0.3	-3.2	-0.7	-1.4	-9.8	3.7

Grouped by structure, those above containing four or more nitrogen atoms (5)
2	CC1C(=O)N(Cc2cn(CCC3OCCCO3)nn2)CCS(=O)(=O)N1Cc1ccc(-c2ccc(Cl)nc2)cc1 (centres undefined)
4	COc1ccc2[nH]c3c(c2c1)CCN1C(=O)C(CC(=O)NCCc2ccccn2)C[C@H](C(=O)N2CCOCC2)[C@@]31CCC1CCCC1 (some centres undefined)
11	CC[C@]12c3[nH]c4ccc(OC)cc4c3CCN1C(=O)C(CC(=O)NCCc1ccccn1)C[C@@H]2C(=O)N1CCN(C(=O)c2ccco2)CC1 (some centres undefined)
12	Nc1nc(-c2ccccc2)c(CCCNc2ccccc2)c(=O)[nH]1
13	CCOc1ccc(OCCNC(=O)c2cc(C3CC3)nc3c2cnn3C(C)C)cc1
assay / entry	2	4	11	12	13
Vif A3G	5%	6%	-4%	-5%	-2%
LANA-H2A inh	.	.	.	.	.
T cruzi inh	.	.	.	.	.
AF4-AF9 inh	1.8	4.6	0.3	8.2	-0.7
